Rango-impB inh: Rango-importin beta binding inhibition | Potency, µM (highest dose often 92.2 µM), for the others: at the top dose inhibition of complex formation | Q14974 | 340,000 compounds, 0.031% hits | Rango CFP/YFP FRET sensor + importin beta, 45 min; active = rising FRET ratio curve, often small or poorly fitted; inconclusive = mostly compound fluorescence or quenching in the first reads; inactive = flat curves in all reads;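 further: potency means the concentration at half of the fitted maximal effect; 0% = DMSO wells and 100% = buffer wells lacking importin beta; nearly all actives have a fitted effect of over 15% in size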
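FRET biosensor (snurportin 1 IBB flanked by EYFP and cerulean), 50 nM, with compound 5 min, then 0.125 microM importin beta in PBS, 1 mM DTT, 0.02% Tween-20, 0.1% BSA. CFP/YFP ratio read after 45 min at room temperature; pre-read flags interference.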
miR-21 FLuc: raises the signal of a miR-21 reporter; HeLa miR-21 FLuc reporter, luciferase, 48 h; Potency, µM (titrated, usually from 38.3 µM), for inactives: top-dose reporter change, positive = more light; 340,000 tested, under 10 active; active = well fitted rising curve with a large enough effect; inconclusive = small, poorly fitted or top-dose-only effect; inactive = no such curve, though single readings can be large or run the other way;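 further: % of control where 0% means no effect; miR-21 action dims this reporter so a rising signal means less miR-21 action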
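Luminescence from a firefly luciferase reporter carrying a miR-21 binding site downstream, stably expressed under a CMV promoter in HeLa cells that make miR-21 endogenously, reports miRNA modulation after 48 h compound exposure up to approximately 40uM final.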
GLA inh pH 4.5: blocks human alpha-galactosidase A at pH 4.5 | P06280 | purified enzyme, 4-MU-alpha-Gal fluorescence, pH 4.5 | activity change, negative = inhibition, % at 105 µM | 230,000 tested, under 10 active | AID 1467; inconclusive = small, poorly fitted or top-dose-only inhibition, or a rising curve; inactive = flat fitted curve, though single readings scatter; no compound was filed as active;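 further: 0% = full activity with enzyme and -100% = basal without enzyme; dose as in the result columns while the protocol names 77 µM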
Target sequence (P06280 whole entry, looked up): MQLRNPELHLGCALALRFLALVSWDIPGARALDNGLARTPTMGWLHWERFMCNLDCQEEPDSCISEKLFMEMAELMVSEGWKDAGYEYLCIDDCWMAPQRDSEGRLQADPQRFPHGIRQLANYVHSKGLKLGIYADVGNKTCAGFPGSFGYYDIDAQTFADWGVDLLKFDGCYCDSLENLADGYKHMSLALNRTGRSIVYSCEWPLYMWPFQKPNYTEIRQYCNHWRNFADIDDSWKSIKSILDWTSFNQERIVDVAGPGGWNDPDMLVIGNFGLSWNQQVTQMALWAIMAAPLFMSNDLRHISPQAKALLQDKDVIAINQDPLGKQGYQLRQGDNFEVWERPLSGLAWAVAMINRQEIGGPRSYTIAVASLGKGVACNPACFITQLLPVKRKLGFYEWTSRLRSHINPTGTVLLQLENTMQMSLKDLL
Rango dissoc inh: inhibitors of RanGTP-induced Rango-importin beta complex dissociation; O95149+P62826; Potency, µM (series often up to 46.1 µM), without a hit: at the top dose activity change, negative = inhibition; AID 540253; Biochemical FRET Rango-importin beta, RanGTP-induced dissociation; 340,000 compounds, 0.071% hits; active means falling FRET ratio curve, often poorly fitted, with flat reads before Ran was added; inconclusive means other falling curves, or compound fluorescence or quenching; inactive means flat or rising ratio curve;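 further: potency means the concentration at half of the fitted maximal effect; % of control where 0% means no effect; nearly all actives have a fitted effect of over 45% in size; -100% = wells without RanGTP and RCC1; the record marks most hits as doubtful in a second field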
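Quantitative HTS using a FRET biosensor: 0.1 uM Rango, 0.25 uM importin beta, 0.6 uM Ran, 2 mM GTP, 0.2 uM RCC1 final, PBS with DTT, Tween-20 and BSA. Post-read taken 45 min after Ran addition.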
Starred values were filed as active, the others as inactive; ? = inconclusive; / = no result given; & = joins results of further samples. A portion of the library; rates above refer to the full screens.

SMILES	Rango-impB inh	miR-21 FLuc	GLA inh pH 4.5	Rango dissoc inh
O=C(Nc1ccc(N2CCOCC2)cc1)c1c(F)cccc1Cl	5.6%	-30%	1	-18%
C=CCn1c(SCC(=O)Nc2c(C)cccc2C)nnc1-c1cnccn1	-2.2%	-4%	5	-3%
O=C(CCCCn1ccc(=O)[nH]c1=O)Nc1ccc(O)c(C(=O)O)c1	0.2%	/	/	-5%
O=C(N/N=C/c1cccnc1)c1cc(C2CC2)nc2ccccc12	1.4%	1%	/	-12%
O=C(Oc1cc(=O)oc2c1c(=O)n1c3c(cccc23)CC1)c1ccc(F)cc1	0.4%	-2%	0	-15%
OCCCn1c(C2CCCN2c2nc(-c3ccc(F)cc3)cs2)nc2cc(Cl)c(N3CCCCC3)cc21 (centres undefined)	-1.6%	/	/	?
Cc1nn(CC(=O)N2CCN(c3ccc(Cl)cc3)CC2)c(=O)c2cccn12	-0.5%	-5%&-4%	/	-13%
Cn1ccnc1C(=O)c1ccc(NN)c([N+](=O)[O-])c1	-0.6%	-9%	-4	14%
Cc1cccc(N2CCN(S(=O)(=O)c3c(C)[nH]c(=O)[nH]c3=O)CC2)c1C	-2.6%	-3%&1%	4	-1%
CCOc1ccccc1N(C)C(=O)Cn1ncc2c([nH]c3ccccc32)c1=O	2.3%	21%	/	2%
Cc1ccnc(Nc2nc(-c3c(C)nc4sccn34)cs2)c1	3.5%	10%	-18	0%
CC(CC(=O)N1CCN(c2cccc(Cl)c2)CC1)S(=O)(=O)c1ccc2c(c1)NC(=O)CO2 (centres undefined)	-2.7%	?	/	-3%
O=C(COC(=O)/C=C/c1ccccc1)NC(=O)NCc1ccccc1	-0.4%	/	/	5%
COc1ccc(OCC(O)CN2C(=O)NC(C)(C)C2=O)cc1 (centres undefined)	-0.1%	0%	/	-9%
Cc1cc2c(cc3c(=O)n(CC(=O)NCCCN4CC(C)CC(C)C4)ncn32)s1 (centres undefined)	-3.1%	0%	/	-9%
COC(=O)C(Cc1c[nH]c2ccccc12)NC(C)=O (centres undefined)	0.0%	-5%	0	-2%
Cc1cc(C(=O)CN2C(=O)NC3(CCCCC3)C2=O)c(C)n1Cc1ccc2c(c1)OCO2	7.1%	-23%	-6	-13%
CC[n+]1c(/C=C2/C=C(C)CC(C)C2)sc2ccccc21 (centres undefined)	-5.0%	7%	-1	3%
COc1cc(C(=O)NC(c2ccccc2)c2ccccc2)cc(OC)c1OC	0.6%	0%	/	?
CC(=O)c1cccc(NC(=O)CC2S/C(=N/N=C/c3cccs3)NC2=O)c1 (centres undefined)	0.3%	3%	4	5%
Cn1c(=O)c2c(nc(N/N=C/c3cccnc3)n2Cc2ccccc2)n(C)c1=O	1.1%	11%	-38	11%
CC(C)C[C@@H](CNCC(=O)[C@H](Cc1c[nH]c2ccccc12)NC(=O)c1[nH]cnc1C(=O)N[C@@H](C)CN)NC(=O)c1nc[nH]c1C(=O)N[C@@H](Cc1ccccc1)C(=O)O	?	/	/	0%
O=C(CC1C(=O)NCCN1C(=O)c1ccccc1)Nc1cc(Cl)ccc1Cl (centres undefined)	-3.4%	0%	/	6%
Cc1cc(S(=O)(=O)Nc2noc3ccccc23)ccc1F	2.3%	-6%	/	-12%
CCCOc1cccc(C(=O)Nc2cccc(NC(=O)c3ccco3)c2)c1	0.1%	14%	-1	11%

(cont.)
SMILES	Rango-impB inh	miR-21 FLuc	GLA inh pH 4.5	Rango dissoc inh
CCOc1ccc(CCN2C(=S)N([C@@H](CC(C)C)CN3CCCC3CN3C(=S)NC[C@@H]3CC(C)C)C[C@@H]2Cc2ccc(O)cc2)cc1 (some centres undefined)	8.2%	/	/	9%
Cc1cc(C(=O)OC(C)C(=O)N2CCc3ccccc32)ccc1[N+](=O)[O-] (centres undefined)	-0.5%	/	/	24%
COc1cc([N+](=O)[O-])ccc1-c1ccc(C(=O)Nc2ccc(NC(C)=O)cc2)o1	-1.8%	-23%	-5	-10%
Nc1ncnc2c1ncn2[C@@H]1O[C@H](CNCc2cn(CC(=O)NC3CC3)c3ccccc23)[C@@H](O)[C@H]1O	-2.5%	/	/	-6%
c1ccc(-c2cc3c(N4CCCCC4)ncnc3s2)cc1	2.1%	-15%	-13	15%
COc1ccccc1/C=N/NS(=O)(=O)c1ccccc1	-0.5%	-1%	/	-13%
Cc1cccc(C)c1NC(=O)c1c[nH]c2ccccc12	-0.8%	-71%	/	6%
COC(=O)CN(c1nc(C)c(Br)c(OC)n1)S(=O)(=O)c1ccccc1	-0.6%	-1%	/	5%
CCc1ccccc1NC(=O)NNC(=O)CCc1ccc(OC)cc1	-0.6%	-4%	/	8%
Cc1ccc(OCC(=O)Nc2ccc(N3CCCC3)cc2)cc1C	2.4%	3%	-3	-16%
CCCCN1C(=O)C(=O)N(CC(=O)Nc2cccc(C(C)=O)c2)C1=O	2.2%	/	/	-8%
CCOC(=O)N1CCN(C2CCCN(C(=O)c3cccc(Cl)c3)C2)CC1 (centres undefined)	2.3%	-1%	/	1%
Cc1cc2c(cc1C)C(c1cccc(F)c1)CC(=O)N2 (centres undefined)	1.0%	23%	/	5%
O=C(c1ccncc1)N1N=C(C2CC2)CC1(O)C(F)(F)F (centres undefined)	-1.8%	-2%	3	2%
O=C(CSc1nc2ccccc2s1)Nc1nccs1	-0.9%	-12%	-18	6%
Cn1c(N)c(C(=O)CSc2nc3ccccc3c(=O)n2Cc2ccccc2)c(=O)n(C)c1=O	3.5%	-11%	-1	23%
CCOc1ccc(C(=O)CC(NCc2cccs2)C(=O)O)cc1 (centres undefined)	-1.3%	-1%	2	-18%
Cc1ccc(C)c(C(=O)CSc2n[nH]c(C(C)C)n2)c1	-0.4%	-11%	1	-6%
Cc1cc2nc(C3CCCN(C(=O)NCc4ccccc4)C3)[nH]c2cc1C (centres undefined)	-6.1%	-36%	2	0%
CN=c1scc(-c2ccccc2Br)n1/N=C/c1ccc[nH]1	/	3%	-2	/
C=CCn1c(SCc2c(C)noc2C)nnc1C1COc2ccccc2O1 (centres undefined)	2.4%	0%	-7	-12%
CN(C)c1ccc(S(=O)(=O)NCC(=O)NCCOc2ccccc2F)cc1[N+](=O)[O-]	1.6%	/	/	11%
C#CCNC(=O)C1=C[C@H](C2CCCCC2)C[C@H](OCc2ccc(CO)cc2)O1	-5.3%	-24%	-5	21%
CCOc1ccc(NC(=O)CN(C)C(=O)C(C)N2C(=O)c3ccccc3C2=O)cc1OCC (centres undefined)	7.0%	/	/	-23%
O=C(c1ccco1)N1CCN(CCCCN2C(=O)c3ccccc3C2=O)CC1	6.1%	3%	-2	3%

Compound profiles, as listed above.
Profile of COc1cc(C(=O)NC(c2ccccc2)c2ccccc2)cc(OC)c1OC : Rango-impB inh: 0.6%; miR-21 FLuc: 0%; GLA inh pH 4.5: /; Rango dissoc inh: ?
Profile of O=C(CC1C(=O)NCCN1C(=O)c1ccccc1)Nc1cc(Cl)ccc1Cl (centres undefined) : Rango-impB inh: -3.4%; miR-21 FLuc: 0%; GLA inh pH 4.5: /; Rango dissoc inh: 6%

(further entries)
SMILES	Rango-impB inh	miR-21 FLuc	GLA inh pH 4.5	Rango dissoc inh
COc1ccc(CC(=O)n2nc(-c3ccccc3)nc2NCc2ccco2)cc1	-0.9%	-37%	-1	-17%
Cc1ccc(C)c(NC(=S)NCC(c2ccccc2)N(C)C)c1 (centres undefined)	1.6%	-2%	-2	0%
COc1cccc(CN(C(=O)c2cc3ccccc3oc2=O)C2CCS(=O)(=O)C2)c1 (centres undefined)	-3.9%	-38%	/	-8%
CCOC(=O)Cc1csc(Nc2ccc(Cl)cc2)n1	0.0%	-27%	-4	-5%
CCn1c(CC(=O)Nc2ccc(C)cc2)nnc1SCC(=O)N1CCN(c2ccccc2)CC1	-0.3%	-2%	0	-13%
CC(CC(=O)OCC(=O)Nc1ccc2[nH]c(=O)[nH]c2c1)c1ccccc1 (centres undefined)	0.2%	/	/	11%
COCC(=O)N(C)c1nnc(-c2cnccn2)s1	1.2%	-4%	10	-18%
CCOc1ccc(NC(=O)COc2ccc(C(=O)NCc3cccnc3)cc2OC)cc1	5.2%	/	/	0.37µM*
O=C1C2C3C=CC(C4CC34)C2C(=O)N1Cc1ccccc1 (centres undefined)	-1.9%	0%	2	20%
COc1ccc(CCNC(=O)CCN2C(=O)[C@@H]3Cc4ccccc4CN3C2=O)cc1OC	1.6%	10%	/	1%
COc1cccc(CN2CCN(C(=O)C3CCC(=O)N(C4CCCC4)C3)CC2)c1 (centres undefined)	0.2%	-1%	/	-5%
CC(=O)NS(=O)(=O)c1ccc(NC(=O)COc2cccc3c2OC(C)(C)C3)cc1	-0.4%	/	/	-11%
COc1cccc(C(=O)NC(=O)Nc2cc(C)[nH]n2)c1	-2.5%	-44%	3	0%
Cc1cc(C)c(NC(=O)c2cn3c4c(c(N5CCN(C)CC5)c(F)cc4c2=O)OCC3C)c(C)c1 (centres undefined)	-4.8%	1%	-21	1%
Cc1cc2c(cc1S(=O)(=O)N1CCN(c3cccc(C(F)(F)F)c3)CC1)OCC(=O)N2	-0.1%	1%	/	10%
Cn1c(=O)n(Cc2ccc(Cl)cc2)c2ccccc21	3.5%	-3%	-4	-2%
Cc1cc(Cl)cc(Br)c1OCCCN1C(=O)NC(C)(C)C1=O	4.0%	2%	-5	7%
CNCc1ccccc1OCC(=O)Nc1ccccc1OC	0.1%	-14%	-11	-7%
COc1ccc(S(=O)(=O)CCC(=O)N2CCN(c3cccc(Cl)c3)CC2)cc1	0.1%	3%	/	16%
Cc1cccc(NCc2ccc([N+](=O)[O-])s2)c1	-2.2%	19%	/	23%
Cn1c(=O)n(C)c2cc(NS(C)(=O)=O)ccc21	?	-7%	2	-20%
CC(NC(=O)C(=O)NCC1CCCO1)c1ccccc1 (centres undefined)	3.1%	-6%	3	-1%
CCOc1cc(C(=O)NCc2ccccc2)ccc1OCC(=O)N1CCCCC1	-4.5%	/	/	?
Cn1cccc1/C=N/NC(=O)c1cccc(OC(F)(F)C(F)F)c1	-3.1%	-44%	1	18%
Cc1ccc(S(=O)(=O)c2nnn3c2nc(N2CCN(c4ccccn4)CC2)c2ccccc23)cc1	0.1%	-1%	/	11%

Molecules shown so far that contain a CF3 group, in the order listed:
SMILES	Rango-impB inh	miR-21 FLuc	GLA inh pH 4.5	Rango dissoc inh
O=C(c1ccncc1)N1N=C(C2CC2)CC1(O)C(F)(F)F (centres undefined)	-1.8%	-2%	3	2%
Cc1cc2c(cc1S(=O)(=O)N1CCN(c3cccc(C(F)(F)F)c3)CC1)OCC(=O)N2	-0.1%	1%	/	10%

Next section:
SMILES	Rango-impB inh	miR-21 FLuc	GLA inh pH 4.5	Rango dissoc inh
CCCCCCNC(=O)Cc1nc2nc(C)cc(C)n2n1	-2.6%	2%	-4	-11%
O=C1/C(=C/c2ccc(F)cc2)CCC1C1CCCC1 (centres undefined)	-10%	-17%	-8	1%
CC(NCc1ccccc1Cl)C(=O)Nc1ccc(S(=O)(=O)N2CCCC2)cc1 (centres undefined)	3.4%	0%	-5	-2%
Cc1ccc(OCCNC(=O)c2cc(=O)[nH]c3ccccc23)cc1	-1.1%	-1%	5	-9%
CN1C2C=C3C(C#N)=C(N)C(C#N)(C#N)[C@@H](c4cccc(F)c4)[C@@H]3C1CC2 (some centres undefined)	?	-7%	-10	?
CCOc1ccc(C(c2c(O)nc(SC)[nH]c2=O)c2c(O)nc(SC)[nH]c2=O)cc1	6.4%	/	/	1%
Cc1cc(OCC(=O)N(Cc2ccco2)c2c(N)n(Cc3ccccc3)c(=O)[nH]c2=O)ccc1Cl	?	/	/	-10%
Cc1cc(C)nc(NS(=O)(=O)c2ccc(NC(=S)NC(=O)C(C)C)cc2)n1	0.0%	-7%	4	6%
COc1ccc(N(C)C(=O)Cc2c(C(=O)O)n(C)c3ccccc23)cc1	?	0%	/	2%
O=c1[nH]c(Cn2nnc(-c3ccccc3)n2)nc2scc(-c3ccccc3)c12	-0.1%	-4%	0	-6%
CC(C)(CNC(=O)c1sc2cc(F)ccc2c1Cl)N1CCOCC1	-1.1%	-8%	-12	-6%
Nc1c(C(=O)c2ccc(Br)cc2)oc2ccccc12	-1.7%	-39%	9	-15%

From PubChem
